# Screens (PubChem BioAssay)
# VDR inhibitor: Inhibitors of the vitamin D receptor (VDR): qHTS; Vitamin D3 receptor (Homo sapiens), P11473; VDR-SRC2-3 peptide fluorescence polarization, 2 h; Potency, µM, inactives show max response, negative = inhibition, most hits filed as inhibitors; 400,000 tested, 0.93% active; AID 504847, 2011; active = well fitted inhibition curve with a large enough effect; inconclusive = small, poorly fitted or top-dose-only effect, or another doubt; inactive = no such curve, though single readings can be large or run the other way; also: series mostly up to about 120 µM
# Target sequence (P11473 whole entry, looked up): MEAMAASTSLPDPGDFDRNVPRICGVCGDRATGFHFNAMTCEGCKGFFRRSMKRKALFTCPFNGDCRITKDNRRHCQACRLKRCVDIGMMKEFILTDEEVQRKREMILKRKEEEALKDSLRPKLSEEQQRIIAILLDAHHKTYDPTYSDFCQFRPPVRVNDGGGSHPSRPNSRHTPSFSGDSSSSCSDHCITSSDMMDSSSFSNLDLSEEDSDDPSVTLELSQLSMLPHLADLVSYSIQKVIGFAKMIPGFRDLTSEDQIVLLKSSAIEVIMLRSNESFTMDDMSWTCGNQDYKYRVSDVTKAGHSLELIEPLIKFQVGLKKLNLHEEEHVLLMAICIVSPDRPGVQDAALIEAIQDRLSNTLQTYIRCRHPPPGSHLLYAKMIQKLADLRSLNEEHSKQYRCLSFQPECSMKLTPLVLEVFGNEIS
#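 VDR–SRC2-3 interaction, FP format. Cmpds 23 nl via pintool, brief spin, 2 h ambient incubation.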
# Numbers without * were called inactive; ? = inconclusive; & = joins results of further samples; [ ] = remark or other dose. % is scaled to controls: 0 for no effect and ±100 for the full control effect; potency is read from the fitted curve at half-maximal effect.
VDR inhibitor | Molecule
38%[activator] | CCCCCC(=O)N/N=C(\C)c1ccccn1
-8% | Cc1ccc(C(=O)N2CCN(C)CC2)cc1S(=O)(=O)N1CCOCC1
-10% | CC12CN(Cc3ccccc3)CC(C)(CN(Cc3ccccc3)C1)C2=O
-2% | COc1cc(OC)cc(C(=O)NCCCCCCNC(=O)c2cc(OC)cc(OC)c2)c1
2% | O=C(Cc1c(O)c2ccccc2[nH]c1=O)NCc1ccccc1F
10% | CNS(=O)(=O)c1ccc(C(=O)NCC(=O)NCC2COc3ccccc3O2)cc1 (stereo not given)
? | CCN1CCC2(CC1)N=C(c1ccc(F)cc1)C(=S)N2C(=O)c1ccc(C)cc1
? | COc1ccc(-n2cc(-c3ccc4c(c3)OCO4)n(CC(=O)Nc3cc(Cl)ccc3C)c2=O)cc1
8% | CCCCCCCC(=O)N/N=C/c1ccncc1
2% | CCCCN1C(=O)CC(C(=O)O)C1c1ccc(OC)cc1 (stereo not given)
3% | Cc1cccc(NC(=O)CSc2nc(-c3ccccc3)c(C#N)c(=O)[nH]2)c1C
5% | CCc1ccc(NC(=O)CC2C(=O)N(c3cccc(C)c3)C(=O)N2Cc2cccs2)cc1 (stereo not given)
9% | O=C(c1cccs1)N(Cc1cccnc1)c1nc2c(Cl)cccc2s1
3% | CN1CCCN(C(=O)CNC(=O)c2ccccc2Br)CC1
-6% | N#CC1(c2ccccc2)CCCN1C(=O)c1ccco1 (stereo not given)
3% | O=[N+]([O-])c1cc(C(F)(F)F)ccc1SCC(O)CO (stereo not given)
11% | Cc1ccc(S(=O)(=O)NCC(c2ccco2)N2CCc3ccccc3C2)cc1 (stereo not given)
19% | C/C(=C(\C#N)C(=O)NCc1ccccc1)N(C)C
19% | COc1ccc(C(=O)N(C)c2ccccc2C(=O)NCCc2ccccc2)cc1
-8% | CC(=O)c1cccc(N(C(=O)Cn2nnc3ccccc32)C(C(=O)NC2CCCCC2)c2cn(C)nc2C)c1 (stereo not given)
-24% | Cc1nnc2ccc(N3CCC4(CC3)OCCO4)nn12
-4% | O=C(CSc1nc2ccccc2c(=O)[nH]1)Nc1ccc(S(=O)(=O)N2CCCC2)cc1
-12% | O=S(=O)(N/N=C\c1cccnc1)c1ccccc1
10% | CSc1ncccc1C(=O)OCC(=O)c1ccc2c(c1)NC(=O)CO2
-7% | O=S(=O)(c1ccccc1)c1cnc(-c2ccccc2)nc1N1CCCCC1
9% | COc1ccc(OCC(=O)Nc2nc3cc4c(cc3s2)OCCO4)cc1
-6% | COc1c2c(cc3oc(=O)c4c5ccc(O)cc5oc4c13)OC(C)(C)CC2
11% | Cc1nc2ccccn2c(=O)c1NC(=O)c1ccc(C(F)(F)F)cc1
-6% | O=C(N/N=C/c1ccc(Br)cc1)c1cc[n+](Cc2ccccc2)cc1
-11% | CC(=O)Nc1ccc(C2=NN(c3ccccc3)C(c3cccs3)C2)cc1 (stereo not given)

# Fetched by structure from above (two):
VDR inhibitor | Molecule
? | COc1ccc(-n2cc(-c3ccc4c(c3)OCO4)n(CC(=O)Nc3cc(Cl)ccc3C)c2=O)cc1
10% | CNS(=O)(=O)c1ccc(C(=O)NCC(=O)NCC2COc3ccccc3O2)cc1 (stereo not given)

# (next part)
VDR inhibitor | Molecule
? | Cc1[nH]c2ccccc2c(=O)c1C(=O)/C=C/c1ccccc1
8% | O=C(CSCc1ccc(F)cc1)N1CCOCC1
17% | CC(=O)Nc1ccc(Oc2nc(C)cc(C)n2)cc1
-12% | CC(=O)c1cccc(NC(=O)C2COc3ccccc3O2)c1 (stereo not given)
-6% | CC(C)(C)OC(=O)C[C@H]1C/C=C\C[C@@H](CC(=O)N(CCO)Cc2ccccc2)C(=O)NCCOC1=O
3% | CC(OC(=O)C1=COCCO1)C(=O)NC1(C#N)CCCCC1 (stereo not given)
-23% | Cc1ccccc1/C=N\NC(=O)c1ccc(Cn2cccn2)o1
-4% | C[C@H](CO)N1C[C@H](C)[C@@H](CN(C)C(=O)NC2CCCCC2)Oc2ccc(NS(=O)(=O)c3cccs3)cc2C1=O
3% | Cc1ccc(S(=O)(=O)N2CCN(c3c([N+](=O)[O-])cc(C(F)(F)F)cc3[N+](=O)[O-])CC2)cc1
-9% | O=C1CC(c2ccccc2)=Nc2ccc(Br)cc2N1
9% | O=c1c2cc3c(=O)n(CC4CCCO4)c(=O)c3cc2c(=O)n1CC1CCCO1 (stereo not given)
-15% | CC(C)N=C(NS(=O)(=O)c1ccccc1)C(Cl)(Cl)Cl
3% | Cc1ccc(-c2noc(-c3ccc(NC4CCCC4)c([N+](=O)[O-])c3)n2)cc1
7% | COc1ccc(Nc2nc(NC(C)(C)C)nc(N3CCCC3)n2)c(OC)c1
-16% | CC(C)Sc1nc2sc3c(c2c(=O)n1-c1ccccc1)CCCC3
7% | N=C1C(c2nc3ccccc3[nH]2)=C(O)CN1c1ccccc1
6% | O=C(CS(=O)(=O)c1ccc(F)cc1)NCCS(=O)(=O)c1ccccc1
14% | COc1ccccc1-n1c(C)nnc1SCC(=O)Nc1cccc(C(C)=O)c1
2% | Cc1cc(-c2ccc(S(=O)(=O)Nc3cc(Cl)ccc3C)s2)on1
-3% | O=C(NCCc1ccc(Cl)cc1Cl)c1ccc2nc[nH]c2c1
? | CCc1ccc(-n2c(C)nc3cc(C(=O)NCc4cccnc4)ccc32)cc1
26% | Cc1ccc(S(=O)(=O)NCc2ccc(C(=O)N(C)CCC#N)cc2)cc1
-9% | O=C(Nc1cccc(NC(=O)c2cccs2)c1)c1ccc2c(c1)OCO2
1% | Cc1ccc2nc(NC(=O)C3CCN(S(=O)(=O)c4ccc5c(c4)oc(=O)n5C)CC3)sc2c1
-17% | O=C(c1cccc(Cl)c1)N1CCN(Cc2ccccc2)CC1
-6% | COc1ccc2[nH]c3c(c2c1)CCN1C(=O)C(CC(=O)NC(C)(C)C)C[C@H](C(=O)N2CCCCC2)[C@@]31CCc1ccccc1 (stereo not given in full)
6% | O=C(N1CCOCC1)N1CCN(S(=O)(=O)c2ccccc2)C1
14% | COc1cc(OC)c2c(-c3cccc(-c4ccc(F)c(Cl)c4)c3)cc(=O)oc2c1
11% | O=C(OCc1nnc(-c2ccccc2)o1)C1=COCCO1
0% | CC(=O)N1N=C(c2cccc([N+](=O)[O-])c2)OC1c1ccccc1Cl (stereo not given)

# Some values from the list:
# In VDR inhibitor, COc1ccc2[nH]c3c(c2c1)CCN1C(=O)C(CC(=O)NC(C)(C)C)C[C@H](C(=O)N2CCCCC2)[C@@]31CCc1ccccc1 (stereo not given in full) reads -6%
# In VDR inhibitor, COc1ccc(Nc2nc(NC(C)(C)C)nc(N3CCCC3)n2)c(OC)c1 reads 7%
# In VDR inhibitor, CC(=O)c1cccc(NC(=O)C2COc3ccccc3O2)c1 (stereo not given) reads -12%
# In VDR inhibitor, CC(C)(C)OC(=O)C[C@H]1C/C=C\C[C@@H](CC(=O)N(CCO)Cc2ccccc2)C(=O)NCCOC1=O reads -6%

# Following part
VDR inhibitor | Molecule
9% | Cc1cc(C)c2nc(N(Cc3cccnc3)C(=O)Cc3ccccc3)sc2c1
10% | O=C(NCc1cccc(Cl)c1)c1cnccn1
-12% | Cc1ccc(C)c(CN2C(=O)c3ccccc3S(=O)(=O)c3ccc(C(=O)N4CCN(c5ccccn5)CC4)cc32)c1
-15% | CN1C[C@@H]2C(c3ccc(Cl)nc3)C3(c4ccccc4)CC2(C3)[C@H]1c1ccccc1 (stereo not given in full)
2% | Cc1nc2cc(OCc3cc(C(=O)NC(C)c4cnn(C)c4)no3)ccc2s1 (stereo not given)
15% | CCOc1ccccc1N(C)C(=O)Cn1cnc2onc(-c3ccc(F)cc3)c2c1=O
2% | CCc1nc(SCC(=O)NCC2CCCO2)c2c(=O)n(C)c(=O)n(C)c2n1 (stereo not given)
4%&-21% | Cc1ccc(-n2c3nc(=O)[nH]c(=O)c-3cc3c(C)nn(-c4ccccc4)c32)c(C)c1
-2% | CC(C)(C)OC(=O)N1CCC(c2c(C(=O)NCCN3CCOCC3)cnn2-c2cccc(F)c2)CC1
5% | CCc1ccc(Cn2c(CNS(=O)(=O)c3ccc4c(c3)CCCC4)nc3cccnc32)cc1
-2% | CN(C)c1cc[n+](Cc2c(Cl)cccc2Cl)cc1
5% | Cc1cccc(-n2c(N)cc(=O)nc2SCC(=O)Nc2nnc(C)s2)c1
2% | COc1cccc(CNC(=O)C2CCCN(S(=O)(=O)c3c(C)[nH]c(=O)[nH]c3=O)C2)c1 (stereo not given)
-12% | Cc1cc(C)cc(NC(=S)NC(=O)CCN2C(=O)c3ccccc3C2=O)c1
-7% | CC(=O)Nc1ccc(-c2csc(NCc3ccco3)n2)cc1
-2% | CCOC(=O)/C(C#N)=C/c1cn(CCC(=O)O)nc1-c1cccc(Br)c1
0% | O=C1CC(c2ccccc2)CN1Cc1ccccc1 (stereo not given)
5% | Nc1nc(Cl)cc(Sc2ccc3ccccc3c2)n1
-23% | CC(C)(C)N(Cc1ccccc1)C(=O)COC(=O)CNC(=O)c1ccco1
10% | COc1ccc(CC(=O)Nc2cc(Cl)ccc2O)cc1
1% | CC(=O)N1CCN(C(=O)c2ccc(S(=O)(=O)Nc3ccccc3C)cc2)CC1
-9% | Cc1ccc(-c2nc(CS(=O)(=O)CC(=O)NC3CC3)c(C)o2)cc1
-9% | COCCN(C(=O)C(C)C)c1nnc(-c2ccc(C(C)(C)C)cc2)s1
6% | COc1ccccc1NC(=O)COC(=O)C1=NN(c2ccccc2)C(=O)CC1
12% | O=C(Nc1nc2c(s1)CN(Cc1ccccc1)CC2)c1c(F)cccc1F
11% | CCOC(=O)N1CCN(Cc2nc3c(c(=O)[nH]c(=O)n3C)n2Cc2cc(C)ccc2C)CC1
-7% | CCN(CC)c1ccc(/C=N/NC(=O)c2cccc(N3CCCC3=O)c2)cc1
4% | CC(C)[C@H](NC(=O)OC(C)(C)C)C(=O)N/N=C/c1ccc2nccnc2c1
10% | CCOC(=O)/C(=C/Nc1ccc(F)c(F)c1)[N+](=O)[O-]
-16% | N#CC(=Cc1ccncc1)c1ccccc1

# 4 of the compounds above, tab-delimited.
SMILES	VDR inhibitor
Nc1nc(Cl)cc(Sc2ccc3ccccc3c2)n1	5%
CC(C)(C)N(Cc1ccccc1)C(=O)COC(=O)CNC(=O)c1ccco1	-23%
COc1ccc(CC(=O)Nc2cc(Cl)ccc2O)cc1	10%
CC(=O)N1CCN(C(=O)c2ccc(S(=O)(=O)Nc3ccccc3C)cc2)CC1	1%

# Further records follow:
VDR inhibitor | Molecule
? | O=C(CNC(=O)c1ccco1)NCC(c1ccco1)N1CCCCC1 (stereo not given)
15% | NC(=O)c1cc2ccccc2o/c1=N/NC(=O)c1ccccc1
? | CC(/C=C1\SC(=S)N(CCC(=O)Nc2cccc(C(=O)O)c2)C1=O)=C\c1ccccc1
-14% | COc1cccc(C2CC(=O)Nc3c2c(=O)n(C)c2ncnn32)c1OC (stereo not given)
10% | COC(=O)c1cc(C)sc1NC(=O)C1CC=CCC1C(=O)O (stereo not given)
20% | Cc1ccc(-n2ncc3c(NCCCn4ccnc4)ncnc32)cc1Cl
-14% | COc1ccc(-c2csc(NC(=O)CSCC(=O)Nc3cc(C)on3)n2)cc1OC
-6% | COc1cc(/C=N/NC(=S)NC2CC3CCC2C3)ccc1O (stereo not given)
4% | O=C(OCc1c(Cl)cccc1Cl)c1ccccn1
2% | CCOC(=O)N1CCC(Nc2c(Nc3ccc(F)cc3)c(=O)c2=O)CC1
3% | Cn1ncc(Cl)c1C(=O)N1CCN(c2ncccn2)CC1
-7% | O=C(CCCn1c(=O)c2cccn2c2cccnc21)N1CCN(c2ccccc2F)CC1
-2% | CCOc1ccc(-n2c(=O)c3sccc3n(Cc3cccc([N+](=O)[O-])c3)c2=O)cc1
-2%&-18% | CCc1cccc(NC(=O)Cn2c(=O)n(CCC(=O)NCC3CCCO3)c(=O)c3cc(OC)c(OC)cc32)c1 (stereo not given)
14% | O=C(c1cc(=O)c2cc(Cl)ccc2o1)N(Cc1ccccc1)C1CCS(=O)(=O)C1 (stereo not given)
13% | CC(NC(=O)Cc1cccs1)C(c1cccs1)N1CCN(c2ccccc2)CC1 (stereo not given)
1% | COc1ccc(Nc2nc(N)nc(CN3CCC(C)CC3)n2)cc1
-12% | O=C(NCc1ccccn1)c1cc(-c2ccccc2Cl)nc2ccccc12
-13% | O=C(c1ccco1)N1CCN(c2ncnc3c2oc2ccccc23)CC1
-3% | COc1cc(F)ccc1S(=O)(=O)NCc1cccnc1
-9% | CCN(Cc1ccccc1)C(c1ccc(C(F)(F)F)cc1)c1nnnn1C(C)(C)C (stereo not given)
-6% | Cc1c(NC(=O)c2ccc3c(c2)C(=O)N(CC2CCCO2)C3=O)cccc1C(=O)O (stereo not given)
-13% | COc1ccc(-c2cc([C@H]3[C@@H]4C=CCC[C@@]4(C)C(=O)N3Cc3ccccc3)ccc2F)cc1
-10% | O=S(=O)(c1cccs1)n1cccn1
10% | Cc1onc(-c2c(F)cccc2Cl)c1C(=O)NC1C(=O)N2C1SC(C)(C)C2C(=O)O (stereo not given)
-3% | c1ccc(-c2nc3ccccc3c3nc4ccccc4n23)cc1
4% | O=C(CC(c1ccccc1)c1ccccc1)Nc1ccc2c(c1)OCCO2
8% | COc1cc(Cl)c(CN2CCCC(CO)(Cc3ccccc3)C2)cc1OC (stereo not given)
-12% | CC(C)(C)S(=O)N1Cc2cn(Cc3ccccc3)c(=O)cc2[C@@H]1CCO (stereo not given in full)
? | COc1cc(N2C(=O)C=CC2=O)ccc1N1C(=O)C=CC1=O
? | O=C1C2C(c3ccccc3)(C(=O)N1c1ccc(Cl)cc1)C2(c1ccccc1)c1ccccc1 (stereo not given)

# Some of the entries so far, as labelled records:
> O=C(CCCn1c(=O)c2cccn2c2cccnc21)N1CCN(c2ccccc2F)CC1
  VDR inhibitor: -7%

> CCOc1ccc(-n2c(=O)c3sccc3n(Cc3cccc([N+](=O)[O-])c3)c2=O)cc1
  VDR inhibitor: -2%

> CCc1cccc(NC(=O)Cn2c(=O)n(CCC(=O)NCC3CCCO3)c(=O)c3cc(OC)c(OC)cc32)c1 (stereo not given)
  VDR inhibitor: -2%&-18%

> O=C(c1cc(=O)c2cc(Cl)ccc2o1)N(Cc1ccccc1)C1CCS(=O)(=O)C1 (stereo not given)
  VDR inhibitor: 14%

# A portion of the library; count on the stated rates, not on these rows.
